Bioassay records as filed in PubChem.
RE007 growth inh: less growth of the S. pombe RE007 Vpr strain. S. pombe RE007 Vpr strain, BacTiter-Glo ATP luminescence, 24 h; control for the full effect not named in the record. Potency, µM (highest dose often 92.2 µM), inactives show top-dose activity change, negative = less growth. 360,000 tested, 0.21% active; active = well fitted falling curve with a large enough effect; inconclusive = small, poorly fitted or top-dose-only effect; inactive = no such curve, though single readings can be large or run the other way;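 also: % is scaled to controls: 0 for no effect and ±100 for the full control effect; nearly all actives have a fitted effect of over 50% in size; the assay follows cell death caused by Vpr and the record does not say whether a fall means rescue or toxicity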
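Fission yeast strain RE007, carrying one chromosomally integrated HIV-1 vpr copy, was seeded at OD 0.01 in PMG+AL medium with 23 nL pinned compound. After 24 h at 30 °C and 99% humidity, viability was read by BacTiter-Glo luminescence.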
Cruzain Triton: blocks cruzain activity in presence of Triton detergent | P25779 | purified cruzain, Z-FR-AMC fluorescence, 0.01% Triton | Potency, µM, for the others: max response, negative = inhibition, most hits filed as inhibitors | 200,000 tested, 0.43% active | AID 1478;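 also: plate controls were neutral wells for no effect and buffer without enzyme for full effect; nearly all actives have a fitted effect of over 40% in size; top concentration of the series not given in the record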
Target sequence (P25779 123-467 limits assumed): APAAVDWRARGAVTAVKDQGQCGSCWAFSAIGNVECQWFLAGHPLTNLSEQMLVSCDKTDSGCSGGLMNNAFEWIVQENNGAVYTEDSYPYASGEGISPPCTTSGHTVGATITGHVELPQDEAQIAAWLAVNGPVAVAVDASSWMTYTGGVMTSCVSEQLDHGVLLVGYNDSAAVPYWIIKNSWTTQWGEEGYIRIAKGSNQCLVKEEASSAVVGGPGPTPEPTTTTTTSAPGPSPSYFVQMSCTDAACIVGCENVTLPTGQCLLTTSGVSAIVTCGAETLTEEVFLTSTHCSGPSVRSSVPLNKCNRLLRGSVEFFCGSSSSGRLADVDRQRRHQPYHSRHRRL
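Cysteine protease activity tested under reducing, mildly acidic conditions (100 mM sodium acetate pH 5.5, 5 mM DTT) plus 0.01% Triton X-100. Cruzain 1.5 nM; substrate Z-FR-AMC 2 uM; 15 min compound preincubation at room temperature.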
StopGo reporter: lowers the luciferase signal of an FMDV 2A StopGo reporter | human cells with a luciferase reporter of 2A StopGo recoding; control for the full effect not named in the record | 410,000 tested, 1.2% active | Potency, µM (doses to about 57.9 µM), for the others: top-dose signal change, negative = less light | AID 1159524; active = well fitted falling curve with a large enough effect; inconclusive = small, poorly fitted or top-dose-only effect; inactive = no such curve, though single readings can be large or run the other way; tested in HEK293T cells; also: % is scaled to controls: 0 for no effect and ±100 for the full control effect; nearly all actives have a fitted effect of over 45% in size; luciferase light after 4 h
Cruzain inh noDet: cruzain (T. cruzi) inhibition without detergent; purified cruzain, Z-FR-AMC fluorescence, no detergent; Potency, µM, without a hit: max response, negative = inhibition, usual class: inhibitors; 200,000 tested, 2.3% active; P25779;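 also: plate controls were enzyme without inhibitor for no effect and buffer without enzyme for full effect; nearly all actives have a fitted effect of over 40% in size; top concentration of the series not given in the record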
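Detergent-free condition (0.00005% Triton X-100) in acetate buffer pH 5.5 with DTT. 1.5 nM enzyme and compound were pre-mixed 15 min, then 2 uM Z-FR-AMC substrate added; reaction progress from fluorescence change between first and third reads (60 s).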
SARS PLpro yeast: inhibitors of SARS-CoV papain-like protease in yeast; S. cerevisiae expressing SARS-CoV PLpro, growth rescue; control for the full effect not named in the record; Potency, µM (top dose mostly 32.9 µM), without a hit: at the top dose activity, positive = growth rescue; 330,000 tested, 0.19% active; AID 485353; active means well fitted rising curve with a large enough effect; inconclusive means small, poorly fitted or top-dose-only effect; inactive means no such curve, though single readings can be large or run the other way; also: 0% is about no effect; nearly all actives have a fitted effect of over 55% in size; growth read by luminescence after 48 h
MARV entry inh: inhibitors of Marburg virus binding or cell entry. Marburg virus pseudotyped entry inhibition, cell reporter; control for the full effect not named in the record; about a third of the inactives were read at about 46 µM. Potency, µM (series often up to 37.8 µM), without a hit: at the highest dose activity change, negative = inhibition, actives largely listed as inhibitors. 300,000 tested, 1.8% active; active = well fitted inhibition curve with a large enough effect; inconclusive = small, poorly fitted or top-dose-only effect, or effect the other way; inactive = flat fitted curve, though single readings scatter; tested in HEK293 cells; about a fifth of its hits are not listed in these tables; also: % is scaled to controls: 0 for no effect and ±100 for the full control effect; luciferase read-out
NS1 inh: inhibitors of influenza NS1 protein function | 270,000 tested, 0.4% active | Potency, µM (highest dose often 46.1 µM), for inactives: top-dose activity, positive = more growth | S. cerevisiae slowed by influenza A NS1, growth recovery by OD600; active means well fitted rising curve with a large enough effect; inconclusive means small, poorly fitted or top-dose-only effect; inactive means no such curve, though single readings can be large or run the other way; also: nearly all actives have a fitted effect of over 50% in size
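Compounds were scored for reversing the slow growth caused by influenza A NS1 in S. cerevisiae, measured by optical density at 600 nm. Assay medium contained 2% galactose at pH 6.0; NS1-free yeast of the same strain were the positive control.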
Lassa entry inh: Lassa virus entry inhibition | Lassa virus pseudotype entry inhibition, cell reporter; control for the full effect not named in the record | Potency, µM (highest dose often 37.9 µM), inactives show top-dose activity change, negative = inhibition, usual class: inhibitors | 300,000 tested, 1.2% active; active means well fitted inhibition curve with a large enough effect; inconclusive means small, poorly fitted or top-dose-only effect, or effect the other way; inactive means flat fitted curve, though single readings scatter; tested in HEK293 cells; also: % is scaled to controls: 0 for no effect and ±100 for the full control effect; nearly all actives have a fitted effect of over 50% in size; luciferase read-out
* marks the source's active call; other numbers are inactive results; ? = inconclusive; . = not tested or not shown; & = joins results of further samples; [ ] = another dose, or the depositor's remark. Unless noted, calls follow the shape of the dose curve; as a rule, active = well fitted curve in the direction sought with a large enough effect; inconclusive = small, poorly fitted or top-dose-only effect, or another doubt; inactive = no such curve, though single readings can be large; an effect the other way counts as inactive or inconclusive. Potency is read from the fitted curve at half-maximal effect.

SMILES | RE007 growth inh | Cruzain Triton | StopGo reporter | Cruzain inh noDet | SARS PLpro yeast | MARV entry inh | NS1 inh | Lassa entry inh
CC(C)c1cnc2c(c1SCC(=O)Nc1cccc([N+](=O)[O-])c1)c(=O)n(C)c(=O)n2C | . | -6.4% | 27% | 13% | . | . | . | -22%[46.1 µM]
COc1ccc(NC(=O)C2CCN(c3ccc(Sc4ccc(C)cc4)nn3)CC2)c(OC)c1 | . | -2.5% | -8% | 7% | . | 0%[46.1 µM] | . | 6%[46.1 µM]
O=C(CNC(=S)N(Cc1ccccc1)Cc1cccnc1)N1CCOCC1 | 4% | . | -5% | . | 2% | 22% | . | 7%
COc1ccc(C(=O)NCCCCCC(=O)O)cc1OC | -9% | 3.9% | -9% | 10% | . | 23%&23% | 1% | -2%
CC(=O)c1ccc(NC(=O)c2cccc(NC(=O)c3ccccc3)c2)cc1 | -7% | . | 31%[activator] | . | 0% | ? | 17% | ?
CC(C)(C)CC(=O)NCCCN1CCOCC1 | 10% | . | -7% | . | 1% | -4%[46.1 µM] | . | -1%[46.1 µM]
Brc1ccc(-n2cnc(-c3ccccc3)c2)cc1 | -7% | . | 0% | . | -2% | ? | -55% | ?
CCOC(=O)c1c(NS(C)(=O)=O)sc2c1CCC(C)C2 (stereo not given) | -19% | -13% | -23% | -18% | -12% | 0% | -61% | 1%
Cc1ccccc1-n1nc2c(c1NC(=O)c1cccs1)CS(=O)(=O)C2 | 4% | . | -13% | . | -1% | . | 9% | .
OC1(c2cccnc2)CC2CCC(C1)N2Cc1nnnn1Cc1ccccc1 (stereo not given) | 22% | 2.1% | -8% | 7% | 1% | 19% | -11% | -11%
CCOc1ccccc1CN1CCc2nc(N3CCN(C)CC3)ncc2C1 | . | 0.4% | -12% | -3% | . | . | . | -7%[46.1 µM]
O=C(NCC(O)c1ccccc1)c1ccc(Cl)c(S(=O)(=O)N2CCCCC2)c1 (stereo not given) | -9% | . | -13% | . | -1% | -22%[46.1 µM] | -5% | -24%[46.1 µM]
CCOc1ccc(NC(=O)C2C3c4ccccc4C(c4ccccc43)C2C(=O)O)cc1 (stereo not given) | 5% | . | 9% | . | -1% | . | 8% | .
COc1ccc(C(=O)NCCN2CCOCC2)cc1[N+](=O)[O-] | -6% | . | -5% | . | 2% | 8% | 2% | 12%
CCOC(=O)C[n+]1c(C)ccc2c1CCC2 | -5% | -0.6% | -17% | -15% | 0% | 4% | 7% | -4%
O=C(CCS(=O)(=O)Cc1cccc(Cl)c1)NCCc1ccccc1 | 10% | . | 22% | . | 0% | . | -8% | .
CC(=O)c1ccc(N2CCN(C(=O)CCC(=O)c3cccs3)CC2)cc1 | -4% | . | -4% | . | -2% | 3% | . | 10%
COc1ccc(CCNS(=O)(=O)c2cc3c4c(c2)C(C)C(=O)N4CCC3)cc1OC (stereo not given) | 9% | . | 0% | . | 0% | . | 14% | .
Cc1ccc(/C=C/C(=O)OC(C)C(=O)Nc2ncc(Cl)cc2Cl)o1 (stereo not given) | 0% | -0.1% | -24% | 3% | 11% | -4% | 4% | 1%
COc1ccc(Sc2nc(-c3ccccc3)ncc2OC)cc1 | -11% | . | -16% | . | -1% | 0%[46.1 µM] | . | -5%[46.1 µM]
CCOc1cc(OCC)cc(C(=O)NCc2ccco2)c1 | -2% | . | -6% | . | -5% | ? | -1% | 8%
CCCCOc1ccc(CNC(=O)C2CCCN(c3nnc(-n4c(C)ccc4C)s3)C2)cc1 (stereo not given) | . | -4.6% | ? | 2% | . | -15%[46.1 µM] | . | 7%[46.1 µM]
O=C(CNC(=O)c1ccccc1F)NCCN1C(=O)S/C(=C\c2ccccc2Cl)C1=O | -26% | . | -1% | . | -1% | 7% | 5% | 0%
CN(Cc1cccc(F)c1)C(=O)c1ccc2c(=O)n3c(nc2c1)CCC3 | 5% | . | -6% | . | 10% | 14%[46.1 µM] | -1% | 6%[46.1 µM]
O=c1cc(-c2ccncc2)oc2ccccc12 | 14% | -1.0% | -7% | -3% | -1% | ? | -49% | 8%
CN(CC(=O)Nc1cccc(F)c1)C(=O)CSc1ccccc1F | -1% | . | -14% | . | -7% | . | 2% | .
COc1cccc(NC(=O)C(Sc2nnc(Nc3ccccc3C)s2)c2ccccc2)c1 (stereo not given) | 1% | -2.3% | 0% | ? | 16% | ? | 5µM* | ?
CC1=Nc2ccccc2N=C(N)C1c1ccccc1 (stereo not given) | ? | . | 19% | . | -6% | -18% | -54% | ?
O=C(Nc1cccc2ncccc12)c1ccc(Cl)cc1 | 9% | . | -3% | . | 0% | 0%[46.1 µM] | 6% | 3%[46.1 µM]
O=C1CCCN1CCCNS(=O)(=O)c1ccc(Br)cc1 | 0% | . | 17% | . | 0% | 3%[46.1 µM] | 3% | 0%
CCc1ccc(NC(=O)C2C3/C=C\CCCCC32)cc1 (stereo not given) | 3% | -0.4% | 50%[activator] | ? | -4% | ? | -3% | -6%
Cn1c(=O)cc(OCC(=O)NCCCN2CCN(c3cccc(Cl)c3)CC2)c2ccccc21 | 2% | -15% | -22% | -7% | -9% | ? | -1% | -7%
COc1ccc(-c2csc(NC(=S)NC(=O)c3cccs3)n2)cc1OC | 5% | . | -7% | . | -2% | ? | 1% | ?
O=C(O)C1CCC(Cn2c(SCc3cc(=O)n4ccccc4n3)nc3ccsc3c2=O)CC1 (stereo not given) | -2% | . | -13% | . | 7% | -4%[46.1 µM] | . | .
O=C(O)CN1CCc2ccccc2C1 | 4% | . | -6% | . | 2% | 7%[46.1 µM] | 0% | 5%[46.1 µM]
COCc1nnc(NC(=O)CSCc2ccccc2)s1 | -14% | 7.0% | 6% | -3% | 1% | -10% | -3% | 7%
Clc1ccccc1N1CCN(Cc2ccc(Br)o2)CC1 | 32% | . | 0% | . | . | ? | . | ?
CC(C)c1ccc(NC(=O)C(=O)c2cn(CC(=O)N3CCCCC3)c3ccccc23)cc1 | 0% | -7.8% | -3% | ? | 9% | ? | 5% | ?
COc1cccc(NC(=O)Cc2nnc(SCC(=O)NC3CCCC3)n2C)c1 | 21% | . | 20% | . | -7% | 2%[46.1 µM] | 9% | .
COc1ccc(CCC(C)NCc2ccc(Cl)c(Cl)c2)cc1 (stereo not given) | -10% | . | -15% | . | -8% | . | -25% | .
Cc1cccc(NC(=O)Nc2ccc(Cl)cc2)n1 | 4% | . | 0% | . | -4% | 11% | -19% | -7%
Cc1ccc(NC(=O)COC(=O)CCC2CCCC2)c(Br)c1 | 8% | . | -8% | . | 5% | ? | . | 21%
O=C(/C=C/c1c(F)cccc1Cl)Nc1ccc(S(=O)(=O)Nc2ncccn2)cc1 | 12% | . | -8% | . | -6% | -1% | 0% | 5%
Cc1ccc(C(=O)OCC(=O)N2CCCC2)cc1 | 4% | . | 30% | . | -1% | ? | 0% | -3%[46.1 µM]
COc1ccc(NC2CCCN(C(=O)c3cc4ncccn4n3)C2)cc1 (stereo not given) | 1% | . | 14% | . | -3% | . | 7% | .
CC12CCC(=O)N1C(C(=O)Nc1cc(C(F)(F)F)ccc1N1CCCCC1)CS2 (stereo not given) | -8% | . | -13% | . | 2% | ? | . | 6%[46.1 µM]
CCn1nc(CC(=O)Nc2nnc(CC(=O)N3CCCC3)s2)c2ccccc2c1=O | -6% | 2.6% | 1% | 10% | 1% | 0%&-3% | 20µM* | ?
CC1CCCCC1NC(=O)CSc1nc2ccccc2c(=O)n1Cc1ccco1 (stereo not given) | -6% | 3.0% | . | -28% | -4% | -11%&0% | 11% | 2%
COc1ccc(-n2c(SCC(=O)NCc3cccs3)nnc2-c2ccoc2C)cc1 | 8% | 0.9% | -7% | 7% | -7% | 0% | -15% | -20%
CC1CCCC(C)N1C(=O)CSc1ncccn1 (stereo not given) | -2% | . | -7% | . | 2% | 2%[46.1 µM] | -7% | 22%
Cc1ccc(NC(=O)C(C)Sc2n[nH]c(CNc3ccccc3)n2)cc1 (stereo not given) | 15% | . | 3% | . | 0% | 5%[46.1 µM] | 1% | -4%[46.1 µM]
CCOc1cc(/C=N/N2CCN(Cc3ccccc3)CC2)ccc1O | 2% | . | -15% | . | 9% | 0% | ? | 0%
CC(Sc1ccccc1)C(=O)NNC(=O)c1csc(N2CCOCC2)n1 (stereo not given) | -2% | . | 11% | . | -1% | 24% | . | -11%[46.1 µM]
CC(C)n1c(=N)c(C(=O)NCc2cccnc2)cc2c(=O)n3ccccc3nc21 | . | -3.7% | 0% | 12% | . | -2%[46.1 µM] | . | 4%[46.1 µM]
O=C(NCC(c1ccco1)N1CCN(c2ccccc2)CC1)C(=O)NC1CC1 (stereo not given) | 8% | . | -9% | . | 0% | 21% | . | 14%
O=C(N/N=C/C(Cl)=C/c1ccccc1)c1ccco1 | -11% | . | 10% | . | -3% | ? | -46% | 2%
CCC(=O)N1CC(C)C(=O)Nc2ccccc21 (stereo not given) | -1% | 2.1% | -23% | -2% | 1% | 14%[46.1 µM] | 7% | -4%
O=C(CC(C(=O)NCc1ccccc1)c1nc2ccccc2c(=O)[nH]1)NCc1ccccc1 (stereo not given) | 5% | . | -13% | . | 0% | . | 4% | .
CCCOC(=O)c1cccc(NC(=O)c2cccnc2)c1 | -3% | 1.3% | -4% | -10% | -5% | -18% | -18% | -11%
O=C(CCCC(=O)NNC(=O)Nc1ccccc1)NNC(=O)Nc1ccccc1 | 5% | . | 7% | . | 0% | 3%[46.1 µM] | -1% | -1%
CC(C)(C)c1ccc(C(=O)c2c[nH]c(C(=O)NCCc3ccccn3)c2)cc1 | 0% | . | 20% | . | 0% | ? | . | 11%
NS(=O)(=O)c1ccc(NC(=O)CN2CCN(S(=O)(=O)c3ccc(F)cc3)CC2)cc1 | 4% | . | -11% | . | 0% | . | 2% | .
